HNF4A DNA FP: change in binding of human HNF4A to DNA, primary screen, biochemical, fluorescence polarization, FITC-DNA; Hepatocyte nuclear factor 4-alpha (Homo sapiens), P41235; 1 h; activity change, % at 10 µM; 360,000 compounds, 0.3% hits; AID 1224865, 2016; in the data active = activity change above about 30%, passing the limit was not always enough;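 note: controls were the assay level and a saturating level of protein; the project sought stronger binding though the title names inhibitors; some compounds called inactive have numbers as strong as hits; positive values seem to mean higher polarization but the record does not say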
LANA-H2B inh: blockers of LANA interaction with H2A/H2B – biochemical, FP readout, HTS, primary screen; cell-free LANA-H2A/H2B peptide, fluorescence polarization; inhibition, % (test concentration not listed); 320,000 compounds, 0.6% hits; in the data active = inhibition mostly above about 10%, no sharp cut-off; inactive = mostly below about 6.7%;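 note: stock transfer was 7.5 nL into about 10 µL; 0% = median of vehicle wells and 100% = median of positive control wells; one replicate is shown; the record names a cut of 25% in any replicate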
Target sequence (Q9QR71 whole entry, looked up): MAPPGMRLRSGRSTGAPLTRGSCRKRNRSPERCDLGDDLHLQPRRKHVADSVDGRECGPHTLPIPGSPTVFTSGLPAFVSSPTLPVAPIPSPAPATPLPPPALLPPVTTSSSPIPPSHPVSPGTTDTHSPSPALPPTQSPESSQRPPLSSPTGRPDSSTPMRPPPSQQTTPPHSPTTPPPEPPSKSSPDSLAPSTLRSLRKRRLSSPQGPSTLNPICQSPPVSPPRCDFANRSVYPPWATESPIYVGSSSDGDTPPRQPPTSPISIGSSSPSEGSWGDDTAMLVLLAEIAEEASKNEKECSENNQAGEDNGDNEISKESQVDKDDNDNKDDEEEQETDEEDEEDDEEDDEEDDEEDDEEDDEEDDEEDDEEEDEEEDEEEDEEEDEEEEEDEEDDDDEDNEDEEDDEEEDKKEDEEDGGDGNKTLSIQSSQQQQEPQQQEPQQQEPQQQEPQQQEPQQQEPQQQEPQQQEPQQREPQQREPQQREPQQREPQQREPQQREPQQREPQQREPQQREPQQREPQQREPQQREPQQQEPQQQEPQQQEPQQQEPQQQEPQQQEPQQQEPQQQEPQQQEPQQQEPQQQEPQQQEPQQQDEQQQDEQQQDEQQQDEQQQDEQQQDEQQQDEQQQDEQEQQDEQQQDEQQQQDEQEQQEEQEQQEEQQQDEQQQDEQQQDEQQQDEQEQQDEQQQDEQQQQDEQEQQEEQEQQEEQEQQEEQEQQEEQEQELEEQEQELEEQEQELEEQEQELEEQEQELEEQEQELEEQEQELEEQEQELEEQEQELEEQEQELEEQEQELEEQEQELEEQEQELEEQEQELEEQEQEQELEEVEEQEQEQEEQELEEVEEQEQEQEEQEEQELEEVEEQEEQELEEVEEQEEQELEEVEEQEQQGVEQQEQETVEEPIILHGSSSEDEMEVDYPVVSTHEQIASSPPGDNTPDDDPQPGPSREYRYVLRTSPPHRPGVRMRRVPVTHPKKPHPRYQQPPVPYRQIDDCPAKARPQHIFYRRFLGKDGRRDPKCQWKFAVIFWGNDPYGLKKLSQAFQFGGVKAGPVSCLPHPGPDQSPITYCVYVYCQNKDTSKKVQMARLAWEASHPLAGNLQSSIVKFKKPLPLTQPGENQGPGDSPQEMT
Beta2AR agonist: beta2AR agonists driving receptor internalization, primary screen, cell-based, FAP fluorogen, flow cytometry | Beta-2 adrenergic receptor (Homo sapiens), P07550 | Am2.2-beta2AR cells; reference of the scale not given here | response, % (test concentration not listed) | 340,000 compounds, 0.43% hits | AID 504454, 2011;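 active = response above a set limit, near 3 SD of response in nonfluorescent compounds, cut at about 42% in these data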;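 note: stock transfer was 100 nL into about 11 µL; a reference agonist was the positive control; negative values mostly stem from fluorescent compounds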
Bfl-1 A1 inh: caspase 3/7 activation in MEF A1-2A-BIM cells, primary screen, A1 inhibitor project, cell-based, luminescence, HTS; Caspase-Glo 3/7 luminescence, 3 h; percent of clofoctol response, vehicle zero; caspase activation, % (test concentration not listed); 330,000 compounds, 0.066% hits; AID 2462, 2010;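 active = over half of replicate activation scores above 10%, or exactly half above 10 with the replicate mean above 10; inconclusive = replicate mean below 10 yet half the replicates above 10; inactive = over half of replicates below 10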;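 note: wells of about 30 µL received 50 nL stock; many hits fall short of the cut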
UCH37 DUB inh: inhibitors of human UCH37 deubiquitinase, primary screen, biochemical, Ub-AMC cleavage, fluorescence | 330,000 compounds, 0.33% hits | purified proteasome/UCH37 | inhibition, % (no concentration beside the values);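 active = mean of two replicates above 20%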;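 note: 0% = compound-free wells with enzyme and 100% = wells lacking proteasome; stock transfer was 100 nL into about 20 µL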
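Test system – human UCH37 enzyme supplied as purified proteasome complex · Incubation – 30 min preincubation with enzyme, 25 min cleavage at room temperature · Detection – AMC fluorescence from Ub-AMC cleavage, excitation 355 nm, emission 460 nm · Benchmarks – no-proteasome wells (full inhibition) and compound-free wells (no inhibition)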
Vif TR-FRET: inhibitors of Vif binding to APOBEC3G peptide, primary screen, biochemical, TR-FRET, GST-Vif 1-94, biotin-A3G peptide, dose response retest (AID 1117319) | Virion infectivity factor (Human immunodeficiency virus type 1 group M subtype B (isolate … | TR-FRET GST-Vif / biotin-A3G peptide binding; higher % means a stronger effect; test concentration not given here; strong numbers were not always called active | inhibition, %, or IC50 in µM where a hit was titrated | 260,000 compounds, 0.57% hits;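 active = above the screen mean plus three standard deviations and confirmed in dose response; inconclusive = results disagree or hit not tested in dose response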;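 note: Vif residues 1-94 fused to GST binding biotinylated APOBEC3G peptide 110-148; 0% = full assay without inhibitor and 100% = GST in place of GST-Vif; retest series ran down from 100 µM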
Ecoli growth: E. coli growth inhibition, primary screen, OD600; Escherichia coli growth, 23 h; stronger effect = lower value; OD600 absorbance (test concentration not listed); 330,000 compounds, 0.21% hits; AID 1053175, 2014;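 active = OD600 absorbance below the run mean of sample wells minus 3.6 SD, in any replicate, cut at about 0.56 in these data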;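 note: stock transfer was 300 nL into about 60 µL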
The depositor's hits bear a star; ? = inconclusive; nt = not tested or not shown; & = joins results of further samples. Only part of the results is shown; count on the stated rates, not on these rows.

SMILES	HNF4A DNA FP	LANA-H2B inh	Beta2AR agonist	Bfl-1 A1 inh	UCH37 DUB inh	Vif TR-FRET	Ecoli growth
Cc1cc(=O)oc2c(C)c(OCC(=O)N3CCC(C(=O)O)(c4ccccc4)CC3)ccc12	4.7	-2.0	10	-0.2	-35	nt	0.71
CC(C#N)CCC#N (centres undefined)	0.6	-32	-2	0.0	-4.3	nt	0.68
Cc1nc2c(c(=O)[nH]1)C(c1ccccc1Cl)c1c(c3ccccc3oc1=O)O2 (centres undefined)	nt	6.7	nt	0.3	3.5	-11%	0.68
Cn1c(O)c(C=NCCOc2ccc(Cl)cc2)c(=O)n(C)c1=O	3.4	-1.5	-2	0.1	3.6	-1%	0.7
CN1C(=O)C(=Cc2ccc(OCCN(C)c3ccccn3)cc2)C(=O)N(C)C1=O	-0.1	-4.7	8	-0.1	-3.3	5%	0.7
CCOC(=O)CC(SP1(=S)OCC2(CCCCC2)CO1)C(=O)OCC (centres undefined)	-2.2	nt	25	nt	-0.7	3%	0.66
O=C(CNC(=O)OCc1ccccc1)Nc1ccc(Br)cc1C(=O)c1ccccc1Cl	0.4	2.8	7	1.1	2.9	nt	0.72
CCOP(=O)(Cc1cc(C#N)oc1C)OCC	-0.4	-0.5	4	0.1	3.4	nt	0.68
COc1cc(C(=O)NC2CCN(Cc3ccccc3)CC2)cc(Cl)c1OC(C)C	1.1	-0.8	2	-0.4	4.5	0%	0.67
O=c1c(C=Nc2cccnc2Cl)c(O)n(CCCCl)c(=O)n1C1CCCCC1	28	-9.3	28	?	4.8	nt	0.69
C=COCCn1c(C)c(C(=O)OCC)c2cc(O)ccc21	4.5	1.0	nt	-0.6	6.9	2%	0.67
O=C(c1ccc(N2CCCCC2)c([N+](=O)[O-])c1)N1CCC2(CC1)OCCO2	4.4	-286	-8	-0.2	3.5	8%	0.52*
CCOC(=O)C1(CCc2ccccc2)CCN(Cc2cccc3cnccc23)CC1	6.3	-0.6	1	-0.2	3.9	0%	0.66
C=CCOC(=O)COc1cc(C)cc2oc(=O)c3c(c12)CCC3	-1.7	-3.1	0	-0.4	-37	-9%	0.73
O=C1NC(=O)N(Cc2ccc(F)cc2)C(=O)/C1=C\c1ccc(N2CCCC2)cc1	-2.4	-2.4	14	-0.1	3.7	?	0.69
Cc1oc(-c2ccccc2F)nc1CS(=O)CC(=O)N1CCC2(CC1)OCCO2 (centres undefined)	-4.5	-0.7	-1	0.8	2.3	1%	0.71
CC12CC(c3ccccc3O1)C(C(=O)OCc1ccccc1)C(=O)N2 (centres undefined)	6.3	-5.1	25	-0.1	1.7	-2%	0.68
CCOP(=O)(OCC)C(NC(=O)c1cccc2ccccc12)C(Cl)(Cl)Cl (centres undefined)	-3.9	-5.7	12	0.8	0.4	2%	0.73
Fc1cccc(F)c1CN1CCN(Cc2c(F)cccc2F)CC1	2.5	1.9	0	-0.7	0.6	-1%	0.64
c1ccc(CN2CCNCC2)nc1	-3.3	-3.6	5	-0.6	3.1	1%	0.68
C=CCCC1(CC(C)C)C(=O)NC(=S)NC1=O	1.2	nt	-3	nt	nt	-6%	nt
C[C@]12CCC3C(CC[C@H]4C[C@@H](O)CC[C@]34C)[C@H]1C=CC2=O (some centres undefined)	0.9	2.5	7	0.0	-0.4	2%	0.62
O=c1c2ccc(Cl)cc2[nH]c(=S)n1-c1cccnc1	0.6	0.1	-5	-1.6	3.8	12%	0.69
COC(=O)C1=C(c2cc3ccccc3o2)C[C@@H]2CC[C@H]1N2C(=O)NC1CCCCC1	-0.5	-0.7	-6	-0.1	0.5	nt	nt
C=CCn1c(O)c(C=NCCCOc2ccc(CC)cc2)c(=O)[nH]c1=S	18	8.3	13	0.2	1.5	-7%	0.69

The final 3 entries of the section above come first, to join the parts:
SMILES	HNF4A DNA FP	LANA-H2B inh	Beta2AR agonist	Bfl-1 A1 inh	UCH37 DUB inh	Vif TR-FRET	Ecoli growth
O=c1c2ccc(Cl)cc2[nH]c(=S)n1-c1cccnc1	0.6	0.1	-5	-1.6	3.8	12%	0.69
COC(=O)C1=C(c2cc3ccccc3o2)C[C@@H]2CC[C@H]1N2C(=O)NC1CCCCC1	-0.5	-0.7	-6	-0.1	0.5	nt	nt
C=CCn1c(O)c(C=NCCCOc2ccc(CC)cc2)c(=O)[nH]c1=S	18	8.3	13	0.2	1.5	-7%	0.69
C1CC2OC2CC1C1CO1 (centres undefined)	-2.8	-4.1	-1	-0.6	-0.5	nt	0.65
CN(C)C(Cc1ccccc1)C(=O)c1c[nH]c2ccccc12 (centres undefined)	1.9	-1.4	13	1.0	3.2	3%	0.66
ON1C2CCCCC2N(O)C1c1ccccc1F (centres undefined)	2.1	-0.6	0	-2.0	2.7	25%	0.68
CN(C)CP(=O)(O)CN(C)C=O	-1.0	6.7	-1	0.7	-2.4	8%	0.76
COc1cc(O)cc2c1cc([N+](=O)[O-])c1c(C(=O)O)cc3c(c12)OCO3	-2.8	nt	-1	nt	4.4	nt	0.76
Cc1cccc(NP(=O)(Oc2ccccc2F)Oc2ccccc2F)c1	-3.7	nt	6	0.3	3.1	27%	0.71
Cc1cccc(-n2c(-c3ccco3)nc3ccccc3c2=O)n1	-3.6	0.6	-5	0.1	1.6	-1%	0.75
c1ccc(N2C3C4CC(C5CCCC54)C32)cc1 (centres undefined)	-1.3	nt	-3	nt	2.1	3%	0.69
CC(Cc1cccs1)NCc1ccccc1 (centres undefined)	1.8	1.4	-4	0.8	3.2	9%	0.68
O=C1NC(=O)C(=Cc2cccc(OCCOc3ccccc3)c2)C(=O)N1	-2.8	-4.6	-4	-5.4	4.8	10%	0.67
COc1ccc(OCC(=O)N2CCN(CC3CC4C=CC3C4)CC2)cc1 (centres undefined)	-2.5	2.8	1	1.6	-2.0	?	0.72
CCC(C)n1c(O)c(C=NCCc2ccccc2)c(=O)[nH]c1=S (centres undefined)	-2.6	2.1	0	-0.4	7.8	-5%	0.65
COc1ccc(Cc2c(O)[nH]c(=S)[nH]c2=O)cc1	-0.7	1.7	-2	-2.7	nt	nt	nt
COc1ccc(CCn2c(O)c(/C=N/NC(=O)c3ccncc3)c(=O)[nH]c2=O)cc1OC	-0.2	-0.3	7	0.2	-19	nt	0.68
Cc1cc(/C=C2\C(=O)NC(=O)N(c3ccc(Cl)cc3)C2=O)c(C)n1-c1sc2c(c1C#N)CCCC2	5.3	0.2	22	-0.3	6.1	nt	0.69
Cc1cc(Cl)ccc1C(=O)C1CCCN(C2CCSCC2)C1 (centres undefined)	-0.1	3.0	5	0.8	1.7	6%	0.66
CC12CNCC(C)(CNC1)C2O (centres undefined)	13	-2.0	5	0.3	0.6	-1%	0.74
CC1=C[C@@H]2c3cccc4[nH]cc(c34)C[C@H]2N(C)C1	-34	2.1	7	2.0	nt	22%	nt
O=C(c1ccccc1)c1cn(CC(=O)N2CCCC2)c2ccccc12	2.5	3.4	8	0.4	1.6	8%	0.71
CCN(CC)CCN1Cc2ccccc2C1=N	1.4	5.1	7	0.1	1.5	-3%	0.63
CCOP(=S)(OCC)C(O)CCCCCn1c(=O)c(F)cn(C2CCCO2)c1=O (centres undefined)	0.7	-0.1	-2	1.9	5.7	-12%	0.66
COC(=O)C1=C(c2ccc(F)cc2OCc2ccccc2)C[C@@H]2CC[C@H]1N2C(=O)NCc1cccc(C(F)(F)F)c1	4.0	0.1	-2	0.1	4.6	nt	nt
O=[N+]([O-])c1ccc(N2CCCC2)c(F)c1Br	-1.6	-2.2	-7	3.1	2.5	9%	0.71
CCOc1ccc(N2C(=O)NC(=O)/C(=C\c3ccc(N4CCCCC4)o3)C2=O)cc1	181	nt	5	1.1	6.9	12%	nt
COC(=O)C1=C(c2ccc(F)cc2F)C[C@@H]2CC[C@H]1N2C(=O)NCC1CC1	1.8	9.6	-5	-0.6	0.1	nt	0.76

Additional compounds follow:
SMILES	HNF4A DNA FP	LANA-H2B inh	Beta2AR agonist	Bfl-1 A1 inh	UCH37 DUB inh	Vif TR-FRET	Ecoli growth
O=C(Nc1cccc2ccccc12)N1CCC2(CC1)OCCO2	-2.9	7.2	1	-0.3	0.6	-7%	0.68
O=C(N/N=C/C1C(=O)NC(=S)N(c2ccccc2)C1=O)c1cc(Br)c(O)c(Br)c1 (centres undefined)	2.5	3.8	15	-0.3	nt	?	nt
Cc1cccc(CCNCc2cc3cc(C)cc(C)c3[nH]c2=O)c1	1.1	2.9	-3	1.5	-12	nt	0.66
CN(C)P(=S)(Nc1ccccc1)C(Cl)(Cl)Cl (centres undefined)	-8.5	2.2	21	-0.4	4.2	nt	0.7
CN1C[C@H](CO)C[C@@H]2c3cccc4[nH]cc(c34)C[C@H]21	-4.3	-0.5	-8	-0.1	4.4	0%	0.64
CCOC(=O)c1c(-n2c(C)cc(/C=C3/C(=O)NC(=O)N(CC)C3=O)c2C)sc2c1CCCC2	0.4	-4.8	8	-0.2	-1.5	nt	0.77
Cc1cc(C)c2c(c1)-c1cc(C)nn1C(c1cccnc1)N2 (centres undefined)	1.5	4.2	4	0.7	1.5	-15%	0.65
CC(C(=O)c1ccccc1)N1C(=O)c2ccccc2C1=O (centres undefined)	0.7	-4.1	2	-0.3	2.1	22%	0.69
Nc1ccccc1C(=O)OCc1ccc([N+](=O)[O-])cc1	-4.0	-2.6	13	-3.8	1.3	-15%	0.73
Cc1c(C)c2ccc(OCC(=O)N3C[C@H]4C[C@@H](C3)c3cccc(=O)n3C4)c(C)c2oc1=O	-1.7	0.8	-1	0.4	-28	nt	0.76
CCC(C(=O)Nc1ccc(Cl)cc1)N1CCCC1=O (centres undefined)	-1.6	5.4	6	0.0	0.6	nt	0.61
CCN(CC)CCNCc1nc2ccccc2c(=O)n1-c1ccc(F)cc1	-0.5	-1.1	2	-0.6	2.0	?	0.69
O=C(c1ccc(CNS(=O)(=O)c2ccccc2)cc1)N1CCC2(CC1)OCCO2	0.7	-5.1	-1	0.1	-1.5	1%	0.77
O=C(C1CCN(S(=O)(=O)c2ccccc2)CC1)N1CCC2(CC1)OCCO2	2.7	-0.9	-4	0.1	0.4	26%	0.71
O[C@H]1[C@H](O)[C@@H](O)CN2CC[C@H](O)[C@H]12	0.8	3.4	-2	1.3	-0.1	?	nt
N#CC(C#N)=Cc1ccc(C=C(C#N)C#N)cc1	0.8	nt	14	nt	nt	12%	nt
COc1cc(Br)c(CNCCc2ccc3c(c2)OCO3)cc1OC	-3.5	2.8	-6	-0.5	3.0	nt	0.68
CN1CCN(/N=C/c2c(O)n(CCC3=CCCCC3)c(=S)[nH]c2=O)CC1	6.4	5.8	7	0.1	5.4	2%	0.65
CN1CCC(=O)N(CCN=[N+]=[N-])CC1	10	4.3	4	0.9	-4.7	nt	0.67
COCCOC(=O)c1c(N)n(Cc2ccc(OC)cc2)c2nc3ccccc3nc12	1.0	9.2	0	-0.2	nt	-4%	0.66
CC(C)(C)C(O)C(Oc1ccc(Cl)cc1)n1cncn1 (centres undefined)	0.5	-5.2	10	-0.1	-1.6	-2%	0.68
OCC12COC3c4ccccc4C(OC1)N32 (centres undefined)	-3.2	0.2	12	-1.1	1.7	19%	0.73
C[N+]1(C)CCc2cc3c(cc2[C@H]1[C@@H]1OC(=O)c2c1ccc1c2OCO1)OCO3	0.0&2.6	1.8&-0.3&2.2	2&2	0.0&1.0	-1.3&2.2	-11%	nt

Screens from PubChem.
